Source: PubChem (National Center for Advancing Translational Sciences (NCATS))
Vif-APOBEC3F blk: qHTS for Inhibitors of Vif-A3F Interactions: qHTS; HeLa A3F-eYFP + Vif (tagged APOBEC3F with the HIV-1 protein that degrades it), YFP fluorescence increase; Potency, µM (top dose mostly 46.1 µM), without a hit: at the top dose activity, negative = active; 390,000 tested, 0.2% active; note: potency is the fitted concentration of half-maximal effect; % of control where 0% means no effect; nearly all actives have a fitted effect of over 65% in size
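HeLa cells stably expressing A3F-eYFP plus Vif, plated and incubated overnight at 37 deg C, then exposed to compounds overnight at 37 deg C. Blocked degradation read as raised yellow fluorescence (Ex 488/Em 500-530).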
mIDH1 inhibitor: qHTS for Inhibitors of mutant isocitrate dehydrogenase 1 (IDH1): qHTS; Isocitrate dehydrogenase [NADP] cytoplasmic (Homo sapiens), O75874; IDH1-R132H enzyme, NADPH consumption, diaphorase/resazurin fluorescence; Potency, µM (top dose mostly 76.6 µM), for inactives: at the highest dose activity change, negative = inhibition, actives largely listed as inhibitors; 390,000 tested, 0.093% active; AID 602179, 2012; note: potency is the fitted concentration of half-maximal effect; % is set by controls: 0 for no effect and ±100 for the full control effect; nearly all actives have a fitted effect of over 65% in size
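IDH1-R132H (0.5 ug/mL) preincubated 30 min with compound, then NADPH (0.016 mM) and alpha-KG (2 mM) added; 80 min at RT, pH 7.5. Remaining NADPH coupled via diaphorase/resazurin to fluorescence (540/590 nm); concentration-response curves normalized to no-enzyme control.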
Vif-APOBEC3G blk: qHTS for Inhibitors of Vif-A3G Interactions: qHTS; 410,000 tested, 0.076% active; HeLa A3G-eYFP + Vif (tagged APOBEC3G with the HIV-1 protein that degrades it), YFP fluorescence, overnight; DNA dC->dU-editing enzyme APOBEC-3G (Homo sapiens), Q9HC16; Potency, µM (titrated, usually from 46.1 µM), inactives show at the top dose activity, negative = active, usual class: inhibitors;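 note: potency is the fitted concentration of half-maximal effect; % is set by controls: 0 for no effect and ±100 for the full control effect; nearly all actives have a fitted effect of over 60% in size; hits raise eYFP signal because A3G escapes Vif-driven loss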
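Read-out is eYFP fluorescence (Ex 488/Em 500-530) from Vif-expressing HeLa A3G-eYFP cells; more signal means A3G escaped Vif-mediated degradation. Cells plated overnight, compound pinned in, incubated overnight at 37 deg C.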
LDHA block: qHTS assay for inhibitors of human lactate dehydrogenase; purified LDHA, NADH/diaphorase-resazurin fluorescence; active compounds read low; L-lactate dehydrogenase A chain (Homo sapiens), P00338; 480,000 tested, 0.15% active; activity change, % (values are at about 110 or 230 µM); in the data active = activity change below about -30%; inconclusive = mostly about -25% to -30%;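 note: plate controls were DMSO wells for no effect and wells without enzyme for full effect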
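Resorufin fluorescence (ex540/em590), read at 0 and 20 min after diaphorase/resazurin addition, reports the NADH left after a 5 min room-temperature reaction of 2 nM human LDH5 with 0.06 mM NADH and 0.2 mM pyruvate.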
PI4K2A inh: qHTS for small molecular inhibitors of PI4K2A; AID 1346378, 2018; 420,000 tested, 0.13% active; activity change, negative = inhibition, % at 76.9 µM; purified PI4K2A, ADP-Glo luminescence, 1 h; active compounds read low; Phosphatidylinositol 4-kinase type 2-alpha (Homo sapiens), Q9BTU6; in the data active = activity change below about -50%; inconclusive = mostly about -30% to -49%;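 note: -100% = wells without enzyme as full effect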
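Compounds are screened against recombinant PI4K2A using PI as substrate and ATP, the latter dispensed at 300 microM. Reactions run one hour at ambient temperature before ADP-Glo detection; full inhibition defined by wells lacking enzyme.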
TrxR1 substrate: qHTS Assay for Substrates of Mammalian Selenoprotein Thioredoxin Reductase 1 (TrxR1): qHTS | Thioredoxin reductase 1, cytoplasmic (Rattus norvegicus), O89049 | Potency, µM (highest dose often 114 µM), for inactives: top-dose activity change, negative = substrate turnover | 390,000 tested, 0.01% active | AID 588456, 2011 | purified TrxR1 substrate turnover, NADPH consumption readout; note: potency is the fitted concentration of half-maximal effect; % is set by controls: 0 for no effect and ±100 for the full control effect; nearly all actives have a fitted effect of over 50% in size
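Rat TrxR1, dispensed at 90 nM, was prereduced with 400 uM NADPH (final) for 5 min at ~22 deg C, then incubated with compound 15 min before 400 uM selenite. A first-read NADPH fluorescence drop versus no-compound background flagged substrates.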
Glioma ERSR ind: qHTS for Inducers of the Endoplasmic Reticulum Stress Response (ERSR) in Human Glioma: qHTS; U87-MG GRP78 promoter luciferase reporter, 16 h; AID 602332, 2012; Potency, µM, for the others: top-dose activation, most hits filed as activators; 420,000 tested, 0.02% active; note: potency is the fitted concentration of half-maximal effect; series mostly up to about 76 µM; % of control where 0% means no effect; nearly all actives have a fitted effect of over 35% in size
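ERSR induction read as luciferase luminescence (Bright-Glo, 10 min at room temperature) in stably transfected human U87-MG glioma cells exposed to compounds for 16 h, using GRP78 as sensor.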
RXFP1 agonist: qHTS Assay for Agonists of the Relaxin Receptor RXFP1 | HEK293T-RXFP1 cAMP TR-FRET, 30 min; response scale: percent of porcine relaxin response, buffer zero | Potency, µM (doses to about 57.5 µM), inactives show at the highest dose activation, actives largely listed as activators | 370,000 tested, 0.3% active; note: potency is the fitted concentration of half-maximal effect; % is set by controls: 0 for no effect and ±100 for the full control effect; nearly all actives have a fitted effect of over 60% in size; many of its hits are not listed in these tables
Target sequence (Q9HBX9 whole entry, looked up): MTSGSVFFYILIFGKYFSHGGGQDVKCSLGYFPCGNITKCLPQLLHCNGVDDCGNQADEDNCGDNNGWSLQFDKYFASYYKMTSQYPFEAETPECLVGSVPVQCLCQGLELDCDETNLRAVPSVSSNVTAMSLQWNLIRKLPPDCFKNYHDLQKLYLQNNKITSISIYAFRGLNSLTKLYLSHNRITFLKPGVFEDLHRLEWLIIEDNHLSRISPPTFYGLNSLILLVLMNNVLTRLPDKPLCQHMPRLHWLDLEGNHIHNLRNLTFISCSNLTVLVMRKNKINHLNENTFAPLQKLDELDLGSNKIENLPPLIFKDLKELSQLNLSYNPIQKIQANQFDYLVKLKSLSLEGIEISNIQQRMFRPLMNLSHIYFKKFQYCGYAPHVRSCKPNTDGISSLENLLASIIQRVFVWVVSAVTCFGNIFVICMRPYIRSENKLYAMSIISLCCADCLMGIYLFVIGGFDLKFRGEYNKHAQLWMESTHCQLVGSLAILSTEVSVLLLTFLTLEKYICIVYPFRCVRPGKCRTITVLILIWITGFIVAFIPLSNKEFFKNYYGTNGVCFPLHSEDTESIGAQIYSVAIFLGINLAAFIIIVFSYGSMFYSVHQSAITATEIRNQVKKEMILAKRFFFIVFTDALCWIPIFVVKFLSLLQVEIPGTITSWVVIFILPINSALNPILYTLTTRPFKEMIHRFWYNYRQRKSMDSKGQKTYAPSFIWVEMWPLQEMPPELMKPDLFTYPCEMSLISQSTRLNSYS
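HEK293 cells stably expressing RXFP1, treated 30 min at 37C with compounds plus PDE4 inhibitor Ro 20174; cAMP measured by HTRF TR-FRET. Normalized to buffer and 29 nM porcine relaxin; EC50 by Hill fit.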
Numbers without * were called inactive; u = inconclusive; & = joins results of further samples; [ ] = dose if it differs, or a comment. Unless noted, calls come from the whole dose curve; as a rule, active = well fitted curve in the direction sought with a large enough effect; inconclusive = small, poorly fitted or top-dose-only effect, or another doubt; inactive = no such curve, though single readings can be large; an effect the other way counts as inactive or inconclusive. This is a subset; the hit share may differ from the screen's.

1) Cc1cccc(C)c1NC(=O)Cn1nc(-c2ccccc2)nc1-c1ccccc1
2) Cc1cccc(NC(=O)Cn2cnc(S(=O)(=O)N3CCCC3)c2)c1C
3) FC(F)(F)c1ccccc1NC(=S)N1CCN(c2ncccn2)CC1
4) Cc1ccc2c(c1)N(C(=O)CCC(=O)NCCCN1CCC(Cc3ccccc3)CC1)CCO2
5) CC(C)[C@H](NC(=O)c1ccccc1)C(=O)OCC(=O)c1ccc2c(c1)NC(=O)CO2
6) CCN1CCCC1CNS(=O)(=O)c1ccc(Cl)c(C(F)(F)F)c1 (centres undefined)
7) COc1ccc(Cl)cc1NC(=O)C(C)N(C)Cc1ccc(C(F)(F)F)cc1 (centres undefined)
8) CCOC(=O)c1cc(C#N)c(N2CCNCC2)nc1C(F)(F)F
Compound | 1 | 2 | 3 | 4 | 5 | 6 | 7 | 8
LDHA block | -8 | -2&-6 | -5 | -3 | 1 | -6 | 4 | 1
TrxR1 substrate | 4%[57.1 µM] | 4% | 3% | 2%[57.1 µM] | 8% | -9% | -12% | 14%
Vif-APOBEC3F blk | -5% | 4%&3% | -3% | -2% | -5% | 12% | -3% | -3%
mIDH1 inhibitor | -3% | 9%&-6% | 7% | -7% | 5% | 2% | 5% | -8%
RXFP1 agonist | 1.7% | -0.2%&-1.7% | 2.0% | 0.6% | 0.2% | 0.9% | 0.4% | 1.5%
PI4K2A inh | 0 | -1&2 | 4 | 3 | 1 | -1 | -3 | 4
Vif-APOBEC3G blk | -3% | 2%&4% | 3% | 6% | -2% | 0% | -2% | -1%
Glioma ERSR ind | -2% | -5%&-1% | -5% | -6% | -4% | -1% | -5% | -3%

9) C[C@H](NC(=O)c1[nH]cnc1C(=O)Nc1ccc(CNC(=O)OC(C)(C)C)cc1)C(=O)OC(C)(C)C
10) CCCC(=O)NCCc1cc(OC)c(OC)cc1Br
11) COc1ccc(NC(=O)c2cc3c(=O)n4ccccc4nc3n2C)cc1OC
12) Cc1cccc(NC(=O)c2nc[nH]c2C(=O)N[C@@H](C)C(=O)OC(C)(C)C)c1
13) CCOc1ccc(/C=N/n2c(C)nnc2C)cc1OC
14) CCc1ccccc1NC(=O)NC(CC)Cn1nnc2ccccc2c1=O (centres undefined)
15) CC(Sc1nc2ccccc2c(=O)n1CC1CCCO1)C(=O)N(C)c1ccccc1 (centres undefined)
16) CC1CCN(S(=O)(=O)c2cc(C(=O)NCc3ccccc3)n(C)c2)CC1
Compound | 9 | 10 | 11 | 12 | 13 | 14 | 15 | 16
LDHA block | 1 | -5 | -7 | 7 | -2 | 0 | -8 | 2
TrxR1 substrate | -17% | -10% | -4% | -10%[57.1 µM] | 7% | 11% | -5% | -11%[57.1 µM]
Vif-APOBEC3F blk | -1% | -7% | -7% | 10% | -6% | -1% | 3% | -4%
mIDH1 inhibitor | -2% | 1% | -12% | 10% | 2% | -2% | 7% | 1%
RXFP1 agonist | 0.6% | 0.5% | 1.6% | 2.4% | -1.0% | 2.5% | 1.4% | 2.1%
PI4K2A inh | 0 | 0 | -3 | -2 | -5 | -8 | 3 | -3
Vif-APOBEC3G blk | -8% | -1% | -5% | -1% | -4% | 3% | -9% | 1%
Glioma ERSR ind | -6% | -2% | -2% | -3% | -1% | -4% | -5% | -2%

Some of these compounds in order of the Vif-APOBEC3F blk value, largest number first.
#	Structure	Vif-APOBEC3F blk
14	CCc1ccccc1NC(=O)NC(CC)Cn1nnc2ccccc2c1=O (centres undefined)	-1%
3	FC(F)(F)c1ccccc1NC(=S)N1CCN(c2ncccn2)CC1	-3%
1	Cc1cccc(C)c1NC(=O)Cn1nc(-c2ccccc2)nc1-c1ccccc1	-5%

Values by screen from the list.
Nos. 1–7 in TrxR1 substrate read 4%[57.1 µM], 4%, 3%, 2%[57.1 µM], 8%, -9%, -12%
Nos. 1–7 in RXFP1 agonist read 1.7%, -0.2%&-1.7%, 2.0%, 0.6%, 0.2%, 0.9%, 0.4%
Nos. 1–7 in Vif-APOBEC3G blk read -3%, 2%&4%, 3%, 6%, -2%, 0%, -2%

4 records drawn at random from the list so far, as already listed:
15) CC(Sc1nc2ccccc2c(=O)n1CC1CCCO1)C(=O)N(C)c1ccccc1 (centres undefined)
11) COc1ccc(NC(=O)c2cc3c(=O)n4ccccc4nc3n2C)cc1OC
9) C[C@H](NC(=O)c1[nH]cnc1C(=O)Nc1ccc(CNC(=O)OC(C)(C)C)cc1)C(=O)OC(C)(C)C
13) CCOc1ccc(/C=N/n2c(C)nnc2C)cc1OC
Compound | 15 | 11 | 9 | 13
LDHA block | -8 | -7 | 1 | -2
TrxR1 substrate | -5% | -4% | -17% | 7%
Vif-APOBEC3F blk | 3% | -7% | -1% | -6%
mIDH1 inhibitor | 7% | -12% | -2% | 2%
RXFP1 agonist | 1.4% | 1.6% | 0.6% | -1.0%
PI4K2A inh | 3 | -3 | 0 | -5
Vif-APOBEC3G blk | -9% | -5% | -8% | -4%
Glioma ERSR ind | -5% | -2% | -6% | -1%

(list continues)
17) Oc1c(Cl)cc(Cl)cc1C=Nc1ccc2c(c1)OCCO2
18) O=C(Nc1nnc(CCN2CCOCC2)s1)c1ccccc1
19) COCCCNc1nc2ccccc2nc1NS(=O)(=O)c1ccc(C)c(C)c1
20) CCCCCn1ccc(=O)c2c(C(F)(F)F)nccc21
21) CCOC(=O)c1cc(C#N)c(N2CCCC2)nc1-c1ccccc1
22) CCn1c(C)nc2cc(C(=O)N/N=C(\C)c3ccc(N4CCOCC4)cc3)ccc21
23) CCOC(=O)C1C(=O)NC(SCC(N)=O)=C(C#N)C1c1ccccc1OCC (centres undefined)
24) COc1ccc(/C=C2\N=C(C)N(c3ccc4ccccc4c3)C2=O)cc1OC
Compound | 17 | 18 | 19 | 20 | 21 | 22 | 23 | 24
LDHA block | 0 | 0 | -16 | 1 | 2 | -15 | -5 | -1
TrxR1 substrate | -8% | -4% | 42%[activator] | -7% | 132% | -11% | -4% | -6%
Vif-APOBEC3F blk | 1% | -2% | 0% | 1% | 7% | -7% | u | u
mIDH1 inhibitor | 9% | 2% | 0% | 7% | 2% | -8% | 4% | 9%
RXFP1 agonist | -0.8% | 1.9% | 7.4% | 2.8% | 3.3% | 2.9% | 1.0% | 1.2%
PI4K2A inh | -16 | 4 | 1 | -10 | 1 | 2 | -4 | 6
Vif-APOBEC3G blk | -2% | 0% | 0% | -1% | -1% | 0% | -5% | -8%
Glioma ERSR ind | -9% | 10% | 0% | -5% | 1% | -3% | -1% | -7%

25) COc1cccc(/C=N\n2c(C)nnc2C)c1OC
26) O=[N+]([O-])c1c(NCCCO)cc(N2CCCCCC2)c2nonc12
27) COc1ccccc1CC(=O)Nc1ccc(-c2noc(COc3ccc(Cl)c(C)c3)n2)cc1
28) CC(C)CCNC(=O)[C@H](Cc1ccccc1)N1Cc2ccccc2C1=O
29) Nc1c(C(=O)c2ccc(Cl)cc2)sc2nsc(SCCN3CCOCC3)c12
Compound | 25 | 26 | 27 | 28 | 29
LDHA block | -4 | 9 | -1 | -1 | -4
TrxR1 substrate | 20%[57.1 µM] | -15%[57.1 µM] | -8% | 6% | 3%[57.1 µM]
Vif-APOBEC3F blk | -2% | 17% | 1% | 4% | u
mIDH1 inhibitor | 3% | 3% | 7% | 2% | 2%
RXFP1 agonist | 0.1% | 8.2% | -0.7% | -2.6% | -2.6%
PI4K2A inh | -5 | -1 | 2 | 7 | 1
Vif-APOBEC3G blk | 4% | 2% | -1% | 5% | u
Glioma ERSR ind | -3% | -4% | 0% | -4% | -8%
